PKD1 kinase inh: PKD1 (human) kinase inhibition; Q15139; actives 0.056% (n = 200,000); inhibition, %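 (about 10 µM by stock and volumes)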; AID 797; PKD1 kinase fluorescence polarization assay;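 active means inhibition of 50% or more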;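 further: controls were vehicle for no effect and a reference inhibitor for full effect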
GALR2 ag: activates the human galanin receptor 2 | O43603 | GALR2-expressing cells, agonist activation read-out | activation, %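 (tested at 5 µM)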 | actives 0.48% (n = 140,000);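 active means above mean plus 3 SD of all compounds, about 5% in these data, not always enough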;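 further: 0% = vehicle buffer wells and 100% = reference agonist at full effect; tested in CHO reporter cells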
Target sequence (O43603 whole entry, looked up): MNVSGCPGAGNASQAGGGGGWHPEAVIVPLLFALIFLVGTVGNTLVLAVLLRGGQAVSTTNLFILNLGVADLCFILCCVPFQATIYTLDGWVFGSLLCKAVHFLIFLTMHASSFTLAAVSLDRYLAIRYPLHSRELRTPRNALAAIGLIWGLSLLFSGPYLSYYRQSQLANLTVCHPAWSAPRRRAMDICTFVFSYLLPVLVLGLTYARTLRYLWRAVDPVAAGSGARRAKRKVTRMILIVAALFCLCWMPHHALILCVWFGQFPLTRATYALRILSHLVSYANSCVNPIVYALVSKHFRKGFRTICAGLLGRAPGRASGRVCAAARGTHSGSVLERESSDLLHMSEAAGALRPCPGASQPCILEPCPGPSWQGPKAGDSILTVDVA
INS promoter inh: TRM-6 insulin promoter activity inhibition | TRM-6 cells (human fetal islet line), insulin promoter-eGFP reporter, imaging; reporter expression induced with tamoxifen | inhibition, % at 2 µM | actives 0.9% (n = 130,000) | AID 1273;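 active means inhibition above the mean plus 3 SD, with well images judged a real hit on visual review, cut at about 60% in these data, passing the limit was not always enough; inconclusive means inhibition over the cutoff but images rejected on review; inactive means inhibition not above the cutoff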
HSV augment: HSV replication enhancement; HSV replication augmentation in cells, fold increase; maximum fold increase; actives 0.005% (n = 220,000); AID 1956;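 active means peak rise of 1.5-fold or more in the series; inconclusive means self-fluorescent or not available for retest; tested in PC3 cells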;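 further: first round at 10 µM; read as green reporter fluorescence; hits show the peak of a series up to 25 µM; 1 = signal of infected wells without compound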
RGS16-Gao HTS: RGS16-Galphao interaction regulator (human); O15492+P09471; bead-based flow cytometry RGS16-Galphao binding, fluorescence; actives lie on both sides; binding response (% of control), % at 10 µM; actives 0.38% (n = 220,000); AID 1441;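 active means below 25% or above 175%, edge rows of some plates excepted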;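 further: Galphao activated by GDP with aluminum fluoride before binding; 100% = wells without compound and 0% = beads without RGS; some results beyond the cut were filed as inactive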
Target sequence (O15492 whole entry, looked up): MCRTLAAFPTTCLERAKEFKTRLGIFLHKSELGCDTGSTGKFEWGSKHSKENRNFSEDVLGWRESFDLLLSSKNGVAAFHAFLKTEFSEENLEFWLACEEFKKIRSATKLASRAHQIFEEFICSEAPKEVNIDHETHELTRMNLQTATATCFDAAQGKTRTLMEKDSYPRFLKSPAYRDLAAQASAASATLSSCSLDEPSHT
Target sequence (P09471 whole entry, looked up): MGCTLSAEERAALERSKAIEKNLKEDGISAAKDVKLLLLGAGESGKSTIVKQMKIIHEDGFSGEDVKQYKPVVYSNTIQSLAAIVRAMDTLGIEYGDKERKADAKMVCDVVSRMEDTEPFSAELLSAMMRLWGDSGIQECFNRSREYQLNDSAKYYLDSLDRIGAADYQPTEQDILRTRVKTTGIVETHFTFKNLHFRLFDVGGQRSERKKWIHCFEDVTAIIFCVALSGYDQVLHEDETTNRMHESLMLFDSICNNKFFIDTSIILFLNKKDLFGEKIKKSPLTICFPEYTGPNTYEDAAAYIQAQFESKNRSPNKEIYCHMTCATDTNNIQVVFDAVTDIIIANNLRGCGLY
INS promoter inh cell count: also measured in INS promoter inh; calls as there; normalized cell count, %; measured here: cell count, toxicity; reference of the scale not given here;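 cells exposed to compound for 48 h; stained nuclei by imaging scaled within each plate; lower means fewer cells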
HSV augment primary fold: second read-out of HSV augment, no call of its own (marks repeat the call); fold increase; compound at 10 µM; measured here: primary screen fold increase 10 uM; tested in PC3 cells;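 GFP signal in the first replicate; 1 = infected wells without compound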
Numbers without * were called inactive; i = inactive; ? = inconclusive; nt = not tested or not shown; & = joins results of further samples.

SMILES	PKD1 kinase inh	GALR2 ag	INS promoter inh	INS promoter inh cell count	HSV augment	HSV augment primary fold	RGS16-Gao HTS
Cc1cc(C(=O)N/N=C2\CCCC(C)C2)n[nH]1 (configuration not stated)	-2	-2.5	-7	65	i	0.89	96
Cc1ccc(-n2nc(C)c3c2OC(N)=C(C#N)C3c2ccc(C)o2)cc1 (configuration not stated)	0	-1.6	33	112	i	0.8	98
CCCCn1c(N)c(NCc2ccccc2)c(=O)[nH]c1=O	0	nt	nt	nt	i	0.97	95
Cc1ccc(NC(=O)c2ccc(S(=O)(=O)N3CCC(C)CC3)cc2)cc1	-13	-1.1	11	77	i	0.83	99
CC(=O)Nc1ccc2nc(-c3ccco3)[nH]c2c1	-7	nt	36	97	i	0.85	111
C/C(=N\N1C(=O)c2ccccc2C1=O)c1cccc([N+](=O)[O-])c1	7	-0.8	-13	37	i	1.1	102
CCN(CC)Cc1nc2c(c(=O)[nH]1)C1(CCCCC1)Cc1ccccc1-2	-10	0.8	-10	128	i	0.83	97
Cc1ccc(CN2CCN(CC(C)C)C(CCO)C2)s1 (configuration not stated)	-2	nt	-9	142	i	0.9	107
O=C(NNc1ccc(F)cc1F)C1CCC1	nt	nt	nt	nt	i	1	104
COC(=O)c1c(NC(C)=O)sc2c1CCCC2	-1	-0.5	-3	88	i	1	107
Cn1c2c(c(=O)n(C)c1=O)CN(CCc1ccccc1)CN2	6	1.1	-5	139	i	0.93	94
O=C(OCC(=O)c1c[nH]c2ccccc12)c1cc2ccccc2cc1O	-5	-0.2	0	85	i	0.93	100
Cc1cccc(C(=O)Nc2ccnc(-c3cccnc3)n2)c1	11	nt	nt	nt	i	0.94	100
COc1cccc(C(=O)OCCN2C(=O)c3ccccc3C2=O)c1OC	-1	-0.8	nt	nt	i	0.96	100
O=C(c1cccs1)N1CCN(C2CCCCC2)CC1	-13	-0.6	-22	77	i	0.93	107
COc1ccc2nc3ccccc3nc2c1	9	nt	nt	nt	i	0.63&0.74	106
O=C(Nc1ccccc1)Nc1cccn(Cc2c(F)cccc2Cl)c1=O	-11	nt	nt	nt	i	0.95	102
COCCOC(=O)c1c(NC(=O)CN(C)c2ccccc2)sc(C(N)=O)c1C	-1	nt	-8	171	i	0.95	95
CCCCCCCC[n+]1c(C)n(-c2ccccc2)c2ccc(NC(C)=O)cc21	-3	nt	nt	nt	i	0.8	97
Cc1cc(C)c(NC(=O)OCCN2CCOCC2)c(C)c1	-6	-2.9	nt	nt	i	1	102
COc1ccc(N2CCN(CC(=O)Nc3nnc(-c4ccccc4)s3)CC2)cc1	-11	-1.9	nt	nt	i	0.94	107
CCC(C)NCCCOc1ccc([N+](=O)[O-])cc1 (configuration not stated)	4	-2.1	17	85	i	0.99	109
COc1ccc(NC(=O)c2cc(OC)c(OC)c(OC)c2)cc1S(=O)(=O)N1CCCCC1	-6	nt	20	97	i	0.96	105
CCOC(=O)c1c(NC(=O)CC2Nc3cc(C)c(C)cc3NC2=O)sc(C)c1C (configuration not stated)	0	-2.5	27	111	i	1	-43
CCOP(=O)(O)c1ccccc1OCCOCCOc1ccccc1P(=O)(O)OCC	0	-2.0	-23	98	i	0.83	106
Cc1c(NC(=O)/C(C#N)=C/c2c(N3CCCCC3)nc3ccccn3c2=O)c(=O)n(-c2ccccc2)n1C	nt	nt	nt	nt	i	0.86	95
CCc1nn(-c2cc(Oc3cccc4ccccc34)nc(-c3ccccc3)n2)c(N)c1C#N	0	-5.6	27	125	i	0.54	142
Cc1cccc(C)c1NC(=O)C1(N2CCN(C(=O)c3ccco3)CC2)CCCCC1	-3	-1.3	-179	99	i	0.93	102
CC(C)C[C@H](NC(=O)c1nc[nH]c1C(=O)NC(c1ccccc1)c1ccccc1)C(=O)OCc1ccccc1	-4	nt	nt	nt	i	0.82	91
COc1cc(Cl)c(C)cc1NC(=O)CSc1nnc(-c2cccnc2)n1Cc1ccco1	3	-0.7	31	90	i	0.95	94
O=C(CCC1COc2ccccc2O1)Nc1ccccn1 (configuration not stated)	-3	-2.1	-29	114	i	0.93	79
Cc1ccc(C(=O)CSc2ncnc3ccccc23)o1	9	nt	0	133	i	1.2	100
Cn1c(=O)c2c(ncn2CCCC(=N)N2CCOCC2)n(C)c1=O	-3	nt	nt	nt	i	1	103
COc1ccc(CCN2C(=O)c3cccnc3C2=O)cc1OC	0	-2.5	-29	66	i	0.95	106
O=C(CSc1ccccn1)Nc1ccc2c(c1)oc1ccccc12	-5	-1.1	-25	111	i	0.93	100
CCOC(=O)c1ccc(-n2c(CCC(=O)O)ccc2-c2cccs2)cc1	-2	nt	nt	nt	i	0.98	94
CCOC(=O)C1CCN(C(=O)CCn2c(=O)[nH]c3ccccc3c2=O)CC1	-16	-0.2	nt	nt	i	0.93	102
OCCNc1nc(-c2ccccc2)nc2ccccc12	-3	nt	57	101	i	0.8	110
CCN1CCN(CCCN(Cc2ccco2)C(=S)Nc2ccc(Cl)cc2)CC1	-2	nt	nt	nt	i	0.95	103
O=C(c1ccc(Cl)c(Cl)c1)c1cnc(Nc2ccccc2)s1	-6	-0.9	nt	nt	i	1	100
CC(=O)Nc1sc(NC(=O)c2ccc([N+](=O)[O-])cc2)nc1-c1cccs1	nt	nt	nt	nt	i	1.2	102
Brc1ccc(-c2nc3ncccn3c2Nc2ccc3c(c2)OCCO3)o1	-14	-1.2	-19	113	i	1.1	100
CC(C)(C)C(=O)Nc1nc2cc3c(cc2s1)OCO3	nt	nt	nt	nt	i	1	93
O=C(O)C1Sc2[nH]c(=O)sc2C2c3ccc(O)cc3OC(=O)C12 (configuration not stated)	4	nt	nt	nt	?	nt	106
O=C(O)c1cc(S(=O)(=O)N2CCOCC2)ccc1N1CCCCC1	0	nt	nt	nt	i	0.79	98
CC(C)NC(=O)COC(=O)c1ccccc1Oc1ccccc1	-7	-0.3	-21	188	nt	nt	100
COc1ccc(C)cc1Nc1n[n+](C)c(-c2ccc(C(=O)O)cc2)s1	nt	nt	nt	nt	i	0.93	103
Cc1ccc(OCc2n[nH]c(=S)n2N)cc1C	4	nt	0	115	i	0.88	102
COC(=O)c1ccccc1NC(=O)COC(=O)CSc1nnc(N)s1	-2	nt	-14	175	i	0.97	104
Cc1cc(N=Nc2ccc(Cl)cc2)cc(CN2CCOCC2)c1O	nt	nt	nt	nt	i	1.2	98
The list continues:
SMILES	PKD1 kinase inh	GALR2 ag	INS promoter inh	INS promoter inh cell count	HSV augment	HSV augment primary fold	RGS16-Gao HTS
O=C(c1ccccc1)c1cc(-c2ccccc2)on1	-1	-4.1	-24	140	i	0.88	103
Cc1ccc(N2CCN(CC(O)COc3cccc4ccccc34)CC2)cc1 (configuration not stated)	nt	nt	nt	nt	i	0.94	103
COc1cc(Cl)ccc1NC(=O)COc1ccccc1C(=O)NN	-2	nt	nt	nt	i	0.97	97
CC(C)c1ccccc1OCCNC(=O)c1cncc(Br)c1	4	nt	nt	nt	i	0.97	97
CCN(CCn1cccn1)C(=O)CC1C(=O)NCCN1Cc1ccc(F)cc1 (configuration not stated)	-4	nt	-44	92	i	1	60
O=C(NC1CCCC1)C1CCN(c2cnccn2)CC1	2	nt	-5	80	i	1.1	101
COC(=O)[C@H](C)NC(=O)Nc1ccccc1F	-10	-0.1	nt	nt	i	0.93	100
COc1ccccc1Nc1nc(N)nc(CN2CCCCCC2)n1	-2	-0.2	32	132	i	0.73	101
Cc1cc(O)c(C=Nc2cccc(Cl)c2)c(=O)o1	-6	-1.1	nt	nt	i	1	107
COCCCn1c(O)c(/C=C2\N=C(C#N)C(=Nc3ccc(C)cc3)O2)sc1=S	nt	nt	nt	nt	?	nt	97
CN1C(C(=O)NCc2cccc(Br)c2)CC2Cn3c(nc4ccccc43)C21 (configuration not stated)	nt	nt	nt	nt	i	0.85	103
COc1cc(C2CC(=O)n3c(nc4ccccc43)S2)cc(OC)c1OC (configuration not stated)	-4	-1.6	-19	81	i	1	101
O=C(NCc1nc2ccccc2[nH]1)C1=C[C@H](c2ccccc2)C[C@H](OCc2ccc(CO)cc2)O1	2	nt	nt	nt	i	0.93	112
CCCN1CCN(C(=O)Cn2cnc3ccc(S(=O)(=O)N4CCC(C)CC4)cc3c2=O)CC1	-4	nt	nt	nt	i	0.98	99
CCOC(=O)Cc1csc(NC(=O)CSc2nnc(C)n2C)n1	-10	-0.7	13	155	i	0.92	62
O=S1(=O)N=C(N=Nc2c(O)[nH]c3ccccc23)c2ccccc21	-5	nt	27	130	i	0.89	4.8*
Cc1c(NC(=O)NC(=O)c2ccc(F)cc2)c(=O)n(-c2ccccc2)n1C	2	-1.1	nt	nt	i	1	110
CCCCNCc1nc2ccccc2c(=O)[nH]1	0	nt	20	83	i	0.95	103
COC(=O)c1ccccc1NC(=O)Oc1ccc(F)cc1	10	-1.9	-50	124	i	0.7	103
CCOC(=O)c1c(NC(=O)CN2CCOCC2)sc2c1CCCC2=O	8	-0.2	10	89	i	0.94	109
N#CC1=C(N)OC2=C(C(=O)CCC2)C1c1ccsc1 (configuration not stated)	-3	-3.2	3	67	i	0.97	103
O=C(COc1ccc(Cl)cc1Cl)NNC(=S)NCc1ccco1	-2	nt	-167	91	i	0.99	118
CC1CCN(CCCOc2ccc(Cl)cc2Br)CC1	-1	nt	-21	125	i	0.82	103
CCN=C1S/C(=C\c2ccc(Sc3ccc(Cl)cc3)o2)C(=O)N1CC	-4	-0.8	-37	86	i	1	19
c1coc(-c2ncc[nH]2)c1	-5	-1.4	nt	nt	i	1.1	96
COc1cc2c(cc1OC)CN(CC(=O)Nc1ccc3c(c1)OC(F)(F)O3)CC2	-8	-0.7	19	100	nt	nt	109
Cc1ccc2nc3c(c(C(=O)O)c2c1)CCC3	-8	-0.3	-30	118	i	0.73	101
CCN1CCN(C(=O)C2CCN(C(=O)c3cc4sccc4n3CC)CC2)CC1	-1	-2.8	nt	nt	i	0.78	107
Nc1ccccc1SCC(=O)Nc1ccc(N2CCOCC2)cc1	3	-2.1	0	12	i	1	98
O=C(Cc1ccc(F)cc1)N1CCC(N2CCC(C(=O)N3CCOCC3)CC2)CC1	-5	nt	27	114	i	1.1	74

Record cards, as listed above. Order of values: PKD1 kinase inh | GALR2 ag | INS promoter inh | INS promoter inh cell count | HSV augment | HSV augment primary fold | RGS16-Gao HTS
CC1CCN(CCCOc2ccc(Cl)cc2Br)CC1 across the screens: -1 | nt | -21 | 125 | i | 0.82 | 103
Nc1ccccc1SCC(=O)Nc1ccc(N2CCOCC2)cc1 across the screens: 3 | -2.1 | 0 | 12 | i | 1 | 98
O=C(COc1ccc(Cl)cc1Cl)NNC(=S)NCc1ccco1 across the screens: -2 | nt | -167 | 91 | i | 0.99 | 118

(list continues)
SMILES	PKD1 kinase inh	GALR2 ag	INS promoter inh	INS promoter inh cell count	HSV augment	HSV augment primary fold	RGS16-Gao HTS
CC(C)NS(=O)(=O)c1ccc(CCC(=O)Nc2ccc3c(c2)OCCO3)cc1	-1	-0.5	7	83	i	1	113
Cc1csc(NC(=O)CSc2ncn(-c3ccccc3)n2)n1	-13	-1.6	-11	110	i	1.1	62
Clc1ccc(-n2nnnc2-c2cnc(-c3ccncc3)nc2-c2cccs2)cc1	-11	-0.6	-383	71	i	0.72	96
CC1=NN(c2nc(-c3ccc(C)cc3)cs2)C(=O)C1N=Nc1ccccc1O (configuration not stated)	-4	nt	-64	68	?	nt	102
CN(C)S(=O)(=O)c1ccc(C(=O)N2CCN=C2SCc2cccnc2)cc1	-4	0.1	nt	nt	i	0.82	107
O=C(CC(NS(=O)(=O)c1ccc(Cl)cc1)c1ccco1)NCc1cccnc1 (configuration not stated)	-3	-2.5	nt	nt	i	0.93	102
O=C(Nc1ccc(C#Cc2ccccc2)cc1)C1CC1	-3	-0.4	-6	57	i	0.81	97
Cn1c(=O)cc(OCC(=O)N2CCCc3ccccc32)c2ccccc21	-8	0.7	nt	nt	i	0.81	98
COc1ccc(-n2c(SCC(=O)NCC3CCCO3)nc3ccccc32)cc1 (configuration not stated)	5	-1.3	-37	108	i	0.98	100
COc1cc(C=O)c(Br)cc1OCC(=O)NCCc1ccccc1	-11	nt	-195	55	i	0.93	105
Nc1nc(NC(=O)c2ccccc2Cl)nn1-c1ccccc1	nt	nt	nt	nt	i	0.73	97
Cc1[nH][nH]c(=O)c1C=NCc1ccc(Cl)cc1	12	nt	nt	nt	i	1.1	103
O=C(CN(Cc1ccccc1)S(=O)(=O)c1ccc2c(c1)OCCO2)N/N=C/c1ccc(F)cc1	-10	-1.8	29	95	i	1.1	113
CCOC(=O)c1oc2ccccc2c1CSc1nnc(-c2ccco2)o1	-18	-2.1	-30	121	i	0.86	102
O=C(NC1CCCC1)c1cccnc1N1CCCCCC1	-9	-2.1	nt	nt	i	1	87
